Bm FixLJ act: activators of Burkholderia fixLJ two-component system | B. multivorans fixK-promoter GFP reporter, 18 h; active compounds read high | z-score (no concentration beside the values) | 29,000 compounds, 0.3% hits | AID 1918990;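 active = replicate mean overnight rise in green fluorescent reporter signal, 3 or more SD over negative controls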;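 note: score is relative to vehicle wells of the plate; 300 nL library stock went into each well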
* = called active by the depositor.

SMILES | Bm FixLJ act
COc1ccc(N2CC(NC(=O)N(C)CCc3scnc3C)CC2=O)cc1 (stereo not given) | 0.46
Cc1c[nH]c(CNC(=O)C(C)(C)NC(=O)c2cccs2)c(C)c1=O | 0.98
CCCC(=O)N1CCc2cc(OC)c(OC)cc2C1COc1ccc2c(C)cc(=O)oc2c1 (stereo not given) | -1.1
COc1ccc(C2=CC(c3ccccc3Cl)n3nc(-c4ccc(Cl)cc4)nc3N2)cc1 (stereo not given) | -1.2
Cc1nc(N(C)C)ncc1C(=O)N(C)Cc1cnn(-c2ccc(F)cc2)c1 | -0.79
CCN(c1ccccc1)S(=O)(=O)c1ccc(NC(=O)c2nc(SC(C)C)ncc2Cl)cc1 | -1.3
CCn1cc(C(=O)NCc2ccc(Cl)cc2)c(=O)c2cc(S(=O)(=O)N3CCc4ccccc4C3)ccc21 | 0.52
CNC(=O)COc1ccc(NC(=O)CCn2nc(-c3ccc(C)cc3)c3ccccc3c2=O)cc1 | -1.5
CCCCN(CC)CCNC(=O)c1cc2c(=O)[nH]c3ccccc3c2n1C | -0.83
COc1cc(NC(=O)CCCSc2nc(-c3ccco3)cc(C(F)(F)F)n2)cc(OC)c1OC | -3
Cc1nn(CC(=O)NCC2(N3CCCC3)CCCC2)cc1Cl | -1.4
CCOC(=O)C1=C(CN2CCN(c3cc(C)ccc3C)CC2)NC(=O)NC1c1ccc(Cl)cc1 (stereo not given) | 0.74
CCN(CC)CCNC(=O)c1cn(CC)c2ccc(S(=O)(=O)N3CCOCC3)cc2c1=O | -0.07
CCOC(=O)c1sc(N2C(=O)c3oc4ccc(C)cc4c(=O)c3C2c2ccccc2F)nc1C (stereo not given) | 0.47
COc1cc(C2c3c(-c4ccccc4O)n[nH]c3C(=O)N2Cc2ccncc2)cc(OC)c1OC (stereo not given) | -1.3
Cc1cc(C(=O)N(C)Cc2cc(-c3cccnc3)no2)c2c(C)noc2n1 | 0.58
COc1ccc(Cl)cc1N(C)C(=O)c1ccc2c(=O)n3c(nc2c1)CCCCC3 | 0.22
COc1cccc(NC(=O)CNC(=O)Cn2c(C)cc3ccccc3c2=O)c1 | -0.16
CCOc1ccc(-c2cc(NC(=O)c3cccc(Cl)c3)c(C(=O)OC)s2)cc1 | -0.61
CCCCC1CCC(C(=O)N2CC(=O)Nc3ccc(F)cc3C2c2ccc(F)cc2)CC1 (stereo not given) | 0.16
Cc1cc(CC2CN(C(=O)c3cc(C(F)F)[nH]n3)CC2O)on1 (stereo not given) | 0.18
Cc1cc(C)n(-c2nc3ccccc3nc2Nc2cccc(C(F)(F)F)c2)n1 | -2.5
O=C(NCc1n[nH]c2c1CCC2)c1cccc2c3c([nH]c12)CCCC3 | -0.41
O=C(NC1CCN(C(=O)c2ccccc2)CC1O)C1CCCC1 (stereo not given) | -0.88
Cc1ccc(N2CC(C)Cn3c2nc2c3c(=O)n(CC(=O)O)c(=O)n2C)cc1 (stereo not given) | -2

(further entries)
SMILES | Bm FixLJ act
O=c1[nH]cnc2c1CN=N2 | -1.7
Cc1ccc(-c2nc(CS(=O)(=O)CC(=O)NCc3ccc(Cl)cc3)c(C)o2)cc1 | -0.09
Cc1cccc(CC(=O)N2CC(=O)Nc3ccc(C)cc3C2c2ccc(F)cc2)c1 (stereo not given) | -1.8
CCN(CC)c1cc(C)c2cc(NC(=O)/C=C/c3cc(OC)c(OC)c(OC)c3)ccc2n1 | -0.55
CCc1ccc2oc(-c3cc(NC(=O)C(C)C)cc(C)c3O)nc2c1 | -0.61
CC1CCN(S(=O)(=O)c2cn(CC(=O)Nc3ccc(F)cc3)c(=O)c3ccccc23)CC1 | -0.92
CCc1ccccc1NC(=O)CN(c1ccc(OC)cc1)S(=O)(=O)c1c(C)n[nH]c1C | -1.3
O=C(CCCCn1c(=O)c2ccccc2n(Cc2cccc(F)c2)c1=O)NCc1ccc2c(c1)OCO2 | -1
CC(=O)c1ccc(C(=O)NC(C)c2nnc(C(C)C)o2)s1 (stereo not given) | -0.45
COc1ccc(NC(=O)CCS(=O)(=O)c2nc(-c3ccc4c(c3)OCO4)cc(C(F)(F)F)n2)cc1OC | -0.73
CCCN1C(=O)C(Cc2nc3ccccc3c(=O)n2CC)c2cc(Br)ccc21 (stereo not given) | -2
CCSc1nnc2c(n1)OC(c1ccc(C)s1)Nc1ccccc1-2 (stereo not given) | -1.2
CCOc1ccc(-c2cc3nc(C4CCN(C(=O)OC(C)(C)C)CC4)c(C(=O)Nc4ccc(C)c(F)c4)cn3n2)cc1 | -1.4
CC1=C(C(=O)Nc2cccnc2)C(c2cccc(Br)c2)n2nc(SCc3ccccc3)nc2N1 (stereo not given) | -0.22
Cc1ncc(C(=O)NC(Cn2ccnc2)C(C)(C)C)c(C)n1 (stereo not given) | -0.6
Cc1ccc(CSc2oc(-c3cccs3)nc2S(=O)(=O)c2ccccc2)cc1 | -0.18
CCOc1ccc(N(CC(=O)Nc2ccc(F)cc2F)S(=O)(=O)c2c(C)[nH]c(=O)[nH]c2=O)cc1 | -1.7
CCOc1ccccc1NC(=O)Cn1ncc2c(=O)oc3ccc(C)cc3c21 | -0.57
CCOc1ccc(-c2cc3c(=O)n(Cc4nc(-c5ccc(OC(C)C)cc5)oc4C)ccn3n2)cc1Cl | -0.26
COc1cccc(-c2cc(C(=O)Nc3c(C)nn(Cc4ccccc4Cl)c3C)no2)c1 | 0.48
O=C1c2[nH]nc(-c3ccccc3)c2C(c2ccccc2)N1c1cccc(C(F)(F)F)c1 (stereo not given) | 0.75
Cc1ccc(NC(=O)c2cc3c([nH]c2=O)CC(C)(C)CC3=O)c(C)c1 | 0.44
COc1ccccc1-c1cc2nc(C)c(CCC(=O)Nc3ccc(Br)c(C)c3)c(C)n2n1 | 0.28
CC1=C(C(=O)Nc2ccccc2C)C(c2cccnc2)n2nc(SCc3ccccc3F)nc2N1 (stereo not given) | 0.09
CCc1ccc(C(=O)N2CCC[C@]3(C2)CN(c2ccnc(N)n2)CCC3O)s1 (stereo not given in full) | -0.15

A section taken from the entries so far:
SMILES | Bm FixLJ act
CCc1ccccc1NC(=O)CN(c1ccc(OC)cc1)S(=O)(=O)c1c(C)n[nH]c1C | -1.3
O=C(CCCCn1c(=O)c2ccccc2n(Cc2cccc(F)c2)c1=O)NCc1ccc2c(c1)OCO2 | -1
CC(=O)c1ccc(C(=O)NC(C)c2nnc(C(C)C)o2)s1 (stereo not given) | -0.45
COc1ccc(NC(=O)CCS(=O)(=O)c2nc(-c3ccc4c(c3)OCO4)cc(C(F)(F)F)n2)cc1OC | -0.73
CCCN1C(=O)C(Cc2nc3ccccc3c(=O)n2CC)c2cc(Br)ccc21 (stereo not given) | -2
CCSc1nnc2c(n1)OC(c1ccc(C)s1)Nc1ccccc1-2 (stereo not given) | -1.2
CCOc1ccc(-c2cc3nc(C4CCN(C(=O)OC(C)(C)C)CC4)c(C(=O)Nc4ccc(C)c(F)c4)cn3n2)cc1 | -1.4
CC1=C(C(=O)Nc2cccnc2)C(c2cccc(Br)c2)n2nc(SCc3ccccc3)nc2N1 (stereo not given) | -0.22
Cc1ncc(C(=O)NC(Cn2ccnc2)C(C)(C)C)c(C)n1 (stereo not given) | -0.6
Cc1ccc(CSc2oc(-c3cccs3)nc2S(=O)(=O)c2ccccc2)cc1 | -0.18
CCOc1ccc(N(CC(=O)Nc2ccc(F)cc2F)S(=O)(=O)c2c(C)[nH]c(=O)[nH]c2=O)cc1 | -1.7
CCOc1ccccc1NC(=O)Cn1ncc2c(=O)oc3ccc(C)cc3c21 | -0.57
CCOc1ccc(-c2cc3c(=O)n(Cc4nc(-c5ccc(OC(C)C)cc5)oc4C)ccn3n2)cc1Cl | -0.26
COc1cccc(-c2cc(C(=O)Nc3c(C)nn(Cc4ccccc4Cl)c3C)no2)c1 | 0.48
O=C1c2[nH]nc(-c3ccccc3)c2C(c2ccccc2)N1c1cccc(C(F)(F)F)c1 (stereo not given) | 0.75
Cc1ccc(NC(=O)c2cc3c([nH]c2=O)CC(C)(C)CC3=O)c(C)c1 | 0.44
COc1ccccc1-c1cc2nc(C)c(CCC(=O)Nc3ccc(Br)c(C)c3)c(C)n2n1 | 0.28

Continued.
SMILES | Bm FixLJ act
CCOc1ccccc1C1C(C(=O)Nc2ccccc2OC)=C(C)Nc2nc3ccccc3n21 (stereo not given) | -1.1
Cc1ccc(-c2nnc(Nc3ccc(O)cc3)c3ccccc23)cc1S(=O)(=O)N1CCOCC1 | 0.74
COc1ccc(CNC(=O)c2ccc3c(c2)N(Cc2c(F)cccc2Cl)C(=O)CS3)cc1 | 1.5
CCc1nc2ccccc2n1C(CC)C(=O)NCCc1cnc[nH]1 (stereo not given) | -1.4
O=c1[nH]nc(CNC2CCN(CCc3ccccc3)CC2)[nH]1 | -3
CCc1ccc(-c2nc3cc(NC(=O)c4cc5ccccc5cc4OC)ccc3o2)cc1 | -0.68
COc1cc(NC(=O)Cn2cnc3sc(C)c(S(=O)(=O)N4CCN(C)CC4)c3c2=O)cc(OC)c1OC | 1.3
Cc1nc(C)c(C(=O)N2CCCN(C(=O)CCc3c[nH]c4ccccc34)CC2)o1 | -1.2
O=C(O)C1CN(S(=O)(=O)c2ccc(F)c(F)c2F)CCC1O (stereo not given) | -1.5
COc1ccc(C2CC(=O)c3c([nH]c(C(=O)OCc4ccccc4)c3C)C2)cc1 (stereo not given) | -0.65
CCc1nn(Cc2cccc(F)c2)c(=O)c2cc3cc(C)ccc3n12 | -2.4
C=C[C@H]1CN2CC[C@H]1C[C@@H]2[C@H](O)c1ccnc2ccccc12 | -1.2
C[C@]1(O)CC2(CCN(S(=O)(=O)c3ccccc3)CC2)OCC1O (stereo not given in full) | -0.72
Cc1ccc(CN(C(=O)COc2ccc(C)c(C)c2)C2CCS(=O)(=O)C2)o1 (stereo not given) | -0.76
COC(=O)Cn1ccc2cc(S(=O)(=O)N3CCCCC3)ccc21 | 0.39
Cc1ccc(-c2cc(C(F)(F)F)n3nc(C(=O)Nc4ccc(C#N)cc4)cc3n2)cc1 | 0.59
Cc1nc(C(C)C)sc1C(=O)NCc1nnc(-c2ccccc2)o1 | 0.61
CCc1ccc(NC(=O)Cn2c(=O)n(CCC(=O)NCCc3ccc(Cl)cc3)c(=O)c3ccccc32)cc1 | -1.6
CN(C)C(=O)CCC1CCCN(C(=O)c2ccc(-n3cnnc3)cc2)C1 (stereo not given) | -2.3
Cc1cccc(NC(=O)Cn2c(=O)n(CCc3ccccc3)c(=O)c3ccccc32)c1 | -1.4
CCCCNC(=O)CCCn1c(=O)c2ccccc2n(Cc2cccc(Cl)c2)c1=O | -0.27
CCOc1ccc(CCNc2ncnc3onc(-c4ccc(Cl)cc4)c23)cc1OCC | 0.02
Cc1ccc2c(c1)cc1c(=O)n(CC(=O)NCc3ccco3)nc(C)n12 | -1.3
O=C(Nc1cc2c(cc1C(=O)c1ccccc1Cl)OCCO2)c1ccccc1 | 0.83
CCCCOc1ccccc1Cn1c(=O)sc2ccccc21 | -0.93

Next section:
SMILES | Bm FixLJ act
Cc1ccc2occ(CC(=O)N(Cc3ccc(Cl)cc3)Cc3ccco3)c2c1 | 1.1
O=C(C1CCC1)N1CCc2cc(S(=O)(=O)NCCc3ccccc3)ccc21 | -0.63
CS(=O)(=O)N1CC2COC[C@]2(C(=O)NCCN2CCCc3ccccc32)C1 (stereo not given in full) | 0.04
Cc1ccc(C(C)C)c(OCC(=O)Nc2c(C(=O)c3ccccc3)oc3ccccc23)c1 | -0.5
COc1ccc(NC(=O)Cn2c(=O)n(-c3ccc(C)c(C)c3)c(=O)c3c4c(sc32)CCCCC4)cc1Cl | 0.55
O=C(Cn1ncc2c3ccccc3n(Cc3cccc(Cl)c3)c2c1=O)NC1CCCCCC1 | 23*
CC(=O)Nc1ccc(S(=O)(=O)NC2(C(F)(F)F)C(=O)Nc3c2c(=O)[nH]c(=O)n3-c2ccc(C)c(C)c2)cc1 (stereo not given) | 0.29
COc1cccc(NC(=O)Cn2c(=O)n(-c3cccc(OC)c3)c(=O)c3c4c(sc32)CCCC4)c1 | -0.43
CCCC(=O)Nc1cc(C)c(O)c(-c2nc3ncccc3o2)c1 | 0.33
CC(C)CC(=O)C1CCCN(C(=O)c2ccc(N3CCN(C)CC3)nc2)C1 (stereo not given) | 0.47
Cc1ccc(Nc2nc3ccccc3nc2-n2nc(C)cc2C)c(Cl)c1 | 0.19
Cc1ccc(C)c(N2CCN(C(=O)c3ccc(CS(=O)(=O)c4ccc(Br)cc4)o3)CC2)c1 | 2.4
CCOC(=O)Cn1c(=O)oc2cc(S(=O)(=O)N3CCN(c4cccc(C)c4C)CC3)ccc21 | -0.38
CCOc1ccc(CN(CCc2ccc3c(c2)OCO3)Cc2cccc(Br)c2)cc1 | 0.34
COc1ccc(N(CC(=O)N2CCN(c3cccc(OC)c3)CC2)S(=O)(=O)c2c(C)noc2C)cc1 | -2.8
CCOC(=O)C1CCN(C(=O)Cn2ncc3c4ccccc4n(Cc4ccc(F)cc4)c3c2=O)CC1 | -1.1
Cc1cc(=O)n2nc(N3CCC(C(=O)NCc4ccc(F)cc4)CC3)sc2n1 | -1.6
COc1ccc(NC(=O)c2c(NC(=O)c3ccncc3)sc3c2CCC(C(C)(C)C)C3)cc1 (stereo not given) | -0.78
COC(=O)c1cc2occc2n1Cc1cccc(C)c1 | 0.55
CCc1ccccc1NC(=O)N1CCc2c([nH]c3ccccc23)C1c1ccc(C)cc1 (stereo not given) | 0.05
CCc1cc(N2CC(O)C(Cc3ccnc4ccccc34)C2)nc(N(C)C)n1 (stereo not given) | -0.49
CC(C)c1cc(CN2CCN(c3ccnc4nncn34)CC2)no1 | -0.58
Cc1ccc(-c2nc(CS(=O)CC(=O)N3CCN(c4ccc(F)cc4)CC3)c(C)o2)cc1 (stereo not given) | -2.5
O=C(NC1(C(F)(F)F)C(=O)Nc2c1c(=O)[nH]c(=O)n2CCc1ccccc1)c1ccc(Cl)cc1Cl (stereo not given) | -1.2
CCC[C@]1(C(=O)O)CN(S(=O)(=O)c2ccc(CC)cc2)CCC1O (stereo not given in full) | 0.36
COC(=O)c1c(NC(=O)COc2ccc(C)cc2Br)sc2c1CCCC2 | -0.04
O=C(C1CCN(S(=O)(=O)c2cccc3nonc23)CC1)N1CCN(c2ccccc2)CC1 | -1.1
CS(=O)(=O)c1oc(-c2ccc(F)cc2)nc1S(=O)(=O)c1ccc(Cl)cc1 | -2.2
Cc1nc(CCNC(=O)C2(C)CCCO2)nc2c1CCCC2 (stereo not given) | -3.1
COc1ccc2c(c1)sc1ncc(C(=O)NCc3cccc(Cl)c3)c(=O)n12 | -1

High-throughput results as filed in PubChem BioAssay.

These rows are one share of the data, so the mix of outcomes need not match the whole.
